FGF22 binding: binders of recombinant human FGF22 by thermal shift; Q9HCT0; SYPRO orange fluorescence; percent of sucrose octasulfate shift, DMSO zero; calls only at 9.99 µM; 340,000 compounds, 1.5% hits;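 active = melting point raised past a set limit in the mean and every replicate; three in four hits are not shown here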
Target sequence (Q9HCT0 whole entry, looked up): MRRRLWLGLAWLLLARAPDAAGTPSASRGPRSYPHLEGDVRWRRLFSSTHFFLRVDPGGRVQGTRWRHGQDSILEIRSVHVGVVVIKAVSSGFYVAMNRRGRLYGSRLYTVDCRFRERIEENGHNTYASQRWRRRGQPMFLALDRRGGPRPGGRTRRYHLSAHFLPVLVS
Calls only; i = inactive. An excerpt (hit frequency here may not be typical).

SMILES	FGF22 binding
Cc1noc(C)c1NC(=O)Nc1ccc2c(c1)C(=O)N([C@@H](C)CO)C[C@H](C)[C@@H](CN(C)C)OCCCC[C@@H](C)O2	i
CCN1[C@H](C(=O)Nc2ccccc2)[C@@H](CO)[C@@H]2Cn3c(ccc(-c4ccncc4)c3=O)[C@@H]21	i
CO[C@@H]1CN(C)C(=O)c2cc(NC(=O)Cc3ccccc3)ccc2OC[C@@H](C)N(C(=O)c2ccccc2F)C[C@H]1C	i
COc1ccc2c3c(n(C)c2c1)[C@@H](CO)N(C(=O)CN(C)C)CC31CCN(Cc2cncnc2)CC1	i
C[C@@H]1CN([C@@H](C)CO)C(=O)c2cc(NC(=O)CCCN(C)C)ccc2O[C@H]1CN(C)Cc1ccc(Oc2ccccc2)cc1	i
CO[C@H](C(=O)N(C)C[C@H]1OCc2ccccc2-c2c(n(C)c3ccccc23)C(=O)N([C@@H](C)CO)C[C@H]1C)c1ccccc1	i
O=C(C[C@H]1C[C@H]2c3cc(NC(=O)NC4CCCC4)ccc3O[C@H]2[C@H](CO)O1)NCCc1ccccc1	i
CN(C)CC#Cc1ccc([C@@H]2[C@H](CO)N3CCCCN(S(=O)(=O)c4ccccc4)C[C@@H]23)cc1	i
C[C@@H]1CN([C@@H](C)CO)C(=O)c2cccc(NS(=O)(=O)c3ccc(F)cc3)c2O[C@@H]1CN(C)Cc1ccc(C(F)(F)F)cc1	i
O=C(C[C@@H]1CC[C@H]2[C@@H](COC[C@@H](O)CN2C(=O)Nc2ccccc2)O1)NCCCN1CCOCC1	i
CN(C)Cc1cn(CC[C@@H]2CC[C@H](NS(=O)(=O)c3ccc(-c4ccccc4)cc3)[C@@H](CO)O2)nn1	i
CCC(=O)N(C)C[C@@H]1Oc2ncc(C#Cc3cccnc3)cc2C(=O)N([C@H](C)CO)C[C@@H]1C	i
N#C[C@H]1[C@@H](c2ccccc2-c2cccc(F)c2)[C@@H](CO)N1C(=O)C1CCCCC1	i
CCCNC(=O)C[C@@H]1CC[C@@H]2[C@H](COc3ccc(NC(=O)CCC)cc3C(=O)N2C)O1	i
COc1ccc(S(=O)(=O)N(C)C[C@@H]2Oc3c(NC(=O)C4CCCCC4)cccc3C(=O)N([C@H](C)CO)C[C@H]2C)cc1	i
C[C@H](CO)N1C[C@H](C)[C@@H](CN(C)C)OCCCC[C@H](C)Oc2ccc(NC(=O)CCC(F)(F)F)cc2C1=O	i
O=C([C@H]1[C@H](CO)[C@H]2Cn3c(ccc(/C=C/c4ccccc4)c3=O)[C@H]2N1CC1CC1)N1CCCCC1	i
CO[C@H]1CN(C)C(=O)c2cc(NC(=O)Nc3cccc(Cl)c3)ccc2OC[C@H](C)NC[C@@H]1C	i
COc1ccc(S(=O)(=O)Nc2ccc3c(c2)CC(=O)N([C@H](C)CO)C[C@H](C)[C@@H](CN(C)Cc2ccccc2)O3)cc1	i
O=C(c1ccc(F)cc1)N1CC(=O)N2[C@H](CO)[C@@H](c3ccc(C#CCC4CCCC4)cc3)[C@@H]2C1	i
Cc1ccccc1S(=O)(=O)N1CCCCN2[C@@H](CO)[C@@H](c3ccc(-c4cccc(F)c4)cc3)[C@@H]2C1	i
C[C@@H]1CCCCO[C@@H](CN(C)S(=O)(=O)c2ccccc2)[C@H](C)CN([C@H](C)CO)C(=O)c2cc(NS(=O)(=O)c3ccc(F)cc3)ccc2O1	i
C[C@H](CO)N1C[C@H](C)[C@H](CN(C)Cc2ccccc2)Oc2ncc(-c3cccc(C(F)(F)F)c3)cc2C1=O	i
C[C@H]1CN([C@@H](C)CO)S(=O)(=O)c2ccc(C#CC3(O)CCCC3)cc2O[C@H]1CN(C)C	i
COCC#Cc1cnc2c(c1)C(=O)N([C@@H](C)CO)C[C@H](C)[C@@H](CN(C)S(=O)(=O)c1cn(C)cn1)O2	i
CO[C@H]1CN(C)C(=O)c2ccc(NC(=O)C3CCCCC3)cc2OC[C@H](C)N(Cc2cccnc2)C[C@H]1C	i
C[C@@H]1CCCCO[C@@H](CN(C)S(=O)(=O)c2ccc(F)cc2)[C@H](C)CN([C@H](C)CO)C(=O)c2cc(NS(=O)(=O)c3cn(C)cn3)ccc2O1	i
C[C@H](CO)N1C[C@H](C)[C@H](CN(C)C)Oc2c(NC(=O)C3CCOCC3)cccc2C1=O	i
Cc1ccc(S(=O)(=O)N[C@H]2C=C[C@H](CC(=O)NCCN3CCCCC3)O[C@@H]2CO)cc1	i
C[C@H]1CN([C@@H](C)CO)C(=O)Cc2cc(NC(=O)NC3CCCCC3)ccc2O[C@@H]1CN(C)C(=O)Nc1ccc(C(F)(F)F)cc1	i
C[C@@H]1CCCCO[C@H](CN(C)CC2CC2)[C@H](C)CN([C@@H](C)CO)C(=O)c2cc(NC(=O)Nc3ccc(F)cc3)ccc2O1	i
COCCNC(=O)C[C@@H]1CC[C@H]2[C@@H](COc3ccc(NC(=O)COC)cc3C(=O)N2C)O1	i
C[C@H]1CN([C@@H](C)CO)C(=O)CCCn2nncc2CO[C@@H]1CN(C)C(=O)CCC(F)(F)F	i
C[C@@H]1CN([C@@H](C)CO)C(=O)Cc2cc(NC(=O)Nc3ccccc3)ccc2O[C@H]1CN(C)Cc1ccc(Oc2ccccc2)cc1	i
CNC[C@H]1Oc2ccc(NC(=O)Nc3ccc(OC)cc3)cc2C(=O)N([C@H](C)CO)C[C@H]1C	i
C[C@@H](NC(=O)C[C@H]1CC[C@@H](NC(=O)Cc2ccccn2)[C@@H](CO)O1)c1ccccc1	i

Looked up one by one from above:
SMILES	FGF22 binding
CNC[C@H]1Oc2ccc(NC(=O)Nc3ccc(OC)cc3)cc2C(=O)N([C@H](C)CO)C[C@H]1C	i
COCC#Cc1cnc2c(c1)C(=O)N([C@@H](C)CO)C[C@H](C)[C@@H](CN(C)S(=O)(=O)c1cn(C)cn1)O2	i

Following part.
SMILES	FGF22 binding
C[C@@H]1CN([C@H](C)CO)S(=O)(=O)c2ccc(-c3cccc(C#N)c3)cc2O[C@H]1CN(C)C(=O)c1ccncc1	i
C[C@H](CO)N1C[C@H](C)[C@@H](CN(C)Cc2ccccn2)Oc2ncc(C#C[C@@H](C)O)cc2C1=O	i
CCCNC(=O)Nc1ccc2c(c1)OC[C@@H](C)N(C(=O)C1CC1)C[C@H](C)[C@@H](OC)CN(C)C2=O	i
CN(C)C(=O)c1ccc(-c2ccc([C@@H]3[C@H](CO)N4CCCCN(C(=O)C5CC5)C[C@@H]34)cc2)cc1	i
C[C@@H]1CCCCO[C@H](CN(C)Cc2ccc(C(=O)O)cc2)[C@H](C)CN([C@@H](C)CO)C(=O)c2cc(NC(=O)Nc3ccccc3)ccc2O1	i
C[C@@H]1CN([C@H](C)CO)C(=O)c2cc(NS(C)(=O)=O)ccc2O[C@@H](C)CCCCO[C@@H]1CN(C)Cc1ccccc1	i
C[C@@H]1CN([C@@H](C)CO)C(=O)c2cc(NS(=O)(=O)c3cn(C)cn3)ccc2O[C@@H]1CN(C)S(C)(=O)=O	i
COc1ccc(CN(C)C[C@H]2OCCCC[C@@H](C)Oc3ccc(NC(=O)NC4CCCCC4)cc3C(=O)N([C@H](C)CO)C[C@@H]2C)cc1	i
COc1ccc(CN(C)C[C@H]2Oc3ccc(NC(=O)NC4CCCCC4)cc3C(=O)N([C@H](C)CO)C[C@H]2C)cc1	i
COc1cccc(S(=O)(=O)N(C)C[C@@H]2Oc3ncc(C#CCN(C)C)cc3C(=O)N([C@@H](C)CO)C[C@H]2C)c1	i
C[C@@H]1CN([C@@H](C)CO)C(=O)c2cccc(NS(=O)(=O)c3cn(C)cn3)c2O[C@H]1CN(C)C(=O)Nc1ccc2c(c1)OCO2	i
C[C@@H]1CN([C@@H](C)CO)C(=O)c2cc(C#Cc3ccccc3F)cnc2O[C@H]1CN(C)C(=O)Cc1cccnc1	i
O=C(C[C@@H]1CC[C@H]2[C@@H](COC[C@H](O)CN2C(=O)Nc2cccc(Cl)c2)O1)N1CCCCC1	i
C[C@@H]1CN([C@@H](C)CO)C(=O)CCCn2nncc2CO[C@H]1CN(C)C(=O)Nc1cccc(C(F)(F)F)c1	i
Cc1noc(C)c1NC(=O)Nc1ccc2c(c1)CC(=O)N([C@@H](C)CO)C[C@@H](C)[C@H](CN(C)S(=O)(=O)c1ccc(Cl)cc1)O2	i
C[C@@H]1CCCCO[C@@H](CN(C)C(=O)Nc2ccc(C(F)(F)F)cc2)[C@H](C)CN([C@@H](C)CO)C(=O)c2cc(NC(=O)C3CCCCC3)ccc2O1	i
C[C@H]1CN([C@@H](C)CO)S(=O)(=O)c2ccc(C#Cc3ccccc3)cc2O[C@@H]1CN(C)C(=O)Nc1ccc2c(c1)OCO2	i
COc1ccc2c(c1)[C@@]1(OCCC=C[C@H]1C)C(=O)N2Cc1ccc(Br)cc1	i
CCN(C[C@@H]1[C@@H](c2ccccc2)[C@H](CO)N1C(=O)COC)S(C)(=O)=O	i
C[C@@H]1CN([C@H](C)CO)C(=O)c2cccc(NC(=O)C3CCOCC3)c2O[C@H]1CN(C)C(=O)Nc1ccc(C(F)(F)F)cc1	i
COc1cccc(S(=O)(=O)N(C)C[C@@H]2Oc3cc(C#CCN(C)C)ccc3S(=O)(=O)N([C@H](C)CO)C[C@H]2C)c1	i
COc1cccc(C(=O)Nc2ccc3c(c2)C(=O)N(C)[C@H]2CC[C@@H](CC(=O)NCc4ccccc4F)O[C@H]2CO3)c1	i
C[C@H](CO)N1C[C@H](C)[C@H](CN(C)C(=O)Nc2ccc3c(c2)OCO3)Oc2cc(C#Cc3cccnc3)ccc2S1(=O)=O	i
CO[C@@H]1CN(C)C(=O)c2cc(NC(=O)Nc3ccccc3F)ccc2OC[C@@H](C)N(CC2CC2)C[C@H]1C	i

Already shown: 4 of the compounds above.
SMILES	FGF22 binding
COc1cccc(S(=O)(=O)N(C)C[C@@H]2Oc3cc(C#CCN(C)C)ccc3S(=O)(=O)N([C@H](C)CO)C[C@H]2C)c1	i
COc1cccc(C(=O)Nc2ccc3c(c2)C(=O)N(C)[C@H]2CC[C@@H](CC(=O)NCc4ccccc4F)O[C@H]2CO3)c1	i
C[C@H](CO)N1C[C@H](C)[C@H](CN(C)C(=O)Nc2ccc3c(c2)OCO3)Oc2cc(C#Cc3cccnc3)ccc2S1(=O)=O	i
CO[C@@H]1CN(C)C(=O)c2cc(NC(=O)Nc3ccccc3F)ccc2OC[C@@H](C)N(CC2CC2)C[C@H]1C	i

Following part:
SMILES	FGF22 binding
C[C@@H]1CN([C@H](C)CO)S(=O)(=O)c2ccc(-c3cccc(C#N)c3)cc2O[C@@H]1CN(C)C(=O)Nc1cc(F)ccc1F	i
COc1ccccc1NC(=O)N1CCCCN2[C@H](CO)[C@H](c3ccc(-c4ccccc4)cc3)[C@@H]2C1	i
CN(C)C(=O)[C@@]1(Cc2ccccc2CN=[N+]=[N-])COC(c2ccc(OCCCO)cc2)=N1	i
O=C(Nc1ccccc1)N1C[C@@H]2[C@H](c3ccccc31)[C@H](CO)N2CC1CCCC1	i
COCC(=O)N1C[C@@H](C)[C@H](OC)CN(C)C(=O)c2cc(NC(=O)c3ccccc3)ccc2OC[C@@H]1C	i
CO[C@H]1CN(C)C(=O)c2cc(NS(C)(=O)=O)ccc2OC[C@H](C)N(CC2CCCCC2)C[C@@H]1C	i
O=C(Nc1ccc(F)cc1)N[C@@H]1CC[C@H](CCNS(=O)(=O)c2cccc(Cl)c2)O[C@@H]1CO	i
C[C@H]1CN([C@@H](C)CO)C(=O)Cc2cc(NC(=O)Cn3cnnn3)ccc2O[C@H]1CN(C)C(=O)NC1CCCCC1	i
C[C@@H](NC(=O)C[C@@H]1CC[C@@H]2[C@H](COC[C@H](O)CN2Cc2ccc(C(F)(F)F)cc2)O1)c1ccccc1	i
CN1C(=O)c2cc(NC(=O)c3ccc(F)c(F)c3)ccc2OC[C@H]2O[C@@H](CC(=O)N3CCOCC3)CC[C@H]21	i
C[C@@H]1CN([C@@H](C)CO)C(=O)c2cc(NC(=O)Cn3cnnn3)ccc2O[C@@H]1CN(C)Cc1ccc(Cl)c(Cl)c1	i
COc1cccc(-c2ccc([C@H]3[C@H](C#N)N(C(=O)Cc4ccccc4)[C@H]3CO)cc2)c1	i
CO[C@H]1CN(C)C(=O)c2ccc(NS(=O)(=O)c3ccccc3C)cc2OC[C@@H](C)NC[C@H]1C	i
COc1ccccc1-c1ccccc1[C@H]1[C@@H](CO)N(C(=O)C2CCOCC2)[C@H]1C#N	i
O=C(C[C@@H]1CC[C@H]2[C@@H](COC[C@H](O)CN2Cc2ccccc2F)O1)N[C@@H]1CCN(Cc2ccccc2)C1	i
COc1ccc(S(=O)(=O)Nc2ccc3c(c2)C(=O)N([C@@H](C)CO)C[C@H](C)[C@@H](CN(C)Cc2ccc(C(=O)O)cc2)OCCCC[C@H](C)O3)cc1	i
CC(C)NC(=O)Nc1ccc2c(c1)CC(=O)N([C@@H](C)CO)C[C@@H](C)[C@H](CN(C)Cc1ccc3c(c1)OCO3)O2	i
COC(=O)C(CC#Cc1ccc2c(c1)[C@]1(C(=O)N2)[C@H](c2ccc(OCCO)cc2)N2[C@H](c3ccccc3)[C@H](c3ccccc3)OC(=O)[C@H]2[C@@H]1C(=O)N1CCc2cc(OC)c(OC)cc2C1)C(=O)OC	i
COc1ccc(NC(=O)N(C)C[C@H]2Oc3ccc(NS(=O)(=O)c4ccccc4)cc3C(=O)N([C@@H](C)CO)C[C@@H]2C)cc1	i
COc1ccc(S(=O)(=O)Nc2ccc3c(c2)CC(=O)N([C@@H](C)CO)C[C@H](C)[C@@H](CN(C)C(=O)Nc2ccccc2)O3)cc1	i
O=C(C[C@@H]1CC[C@H]2[C@@H](COC[C@H](O)CN2C(=O)Nc2ccc(C(F)(F)F)cc2)O1)NCC1CC1	i

Gathered by group: the entries above with a COOH group.
SMILES	FGF22 binding
C[C@@H]1CCCCO[C@H](CN(C)Cc2ccc(C(=O)O)cc2)[C@H](C)CN([C@@H](C)CO)C(=O)c2cc(NC(=O)Nc3ccccc3)ccc2O1	i
COc1ccc(S(=O)(=O)Nc2ccc3c(c2)C(=O)N([C@@H](C)CO)C[C@H](C)[C@@H](CN(C)Cc2ccc(C(=O)O)cc2)OCCCC[C@H](C)O3)cc1	i
